ClpP mod – qHTS Assay for Activators of ClpP; purified B. subtilis ClpP, FRET peptide cleavage, 20 min; Potency, µM (highest dose often 57.5 µM), inactives show at the top dose activity change, negative = active; 340,000 tested, 1.9% active; ATP-dependent Clp protease proteolytic subunit (Bacillus subtilis (strain 168)), P80244; active = well fitted falling curve with a large enough effect; inconclusive = small, poorly fitted or top-dose-only effect; inactive = no such curve, though single readings can be large or run the other way; further: potency means the concentration at half of the fitted maximal effect; the source files actives as falling curves though it sought activators and does not explain the sign; nearly all actives have a fitted effect of over 65% in size; many hits overshoot -100%
Target sequence (P80244 whole entry, looked up): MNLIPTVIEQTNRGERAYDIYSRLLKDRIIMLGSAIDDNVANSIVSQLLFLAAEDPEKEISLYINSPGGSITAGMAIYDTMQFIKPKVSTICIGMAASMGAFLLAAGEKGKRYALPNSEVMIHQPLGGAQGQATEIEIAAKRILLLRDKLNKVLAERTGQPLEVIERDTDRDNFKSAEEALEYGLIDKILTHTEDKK
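Purified B. subtilis ClpP, 10 microg/mL final in Tris/HCl pH8 with KCl, BSA, glycerol and Tween-20, cleaved an Abz/nitrotyrosine-quenched decapeptide. Fluorescence (ex 320, em 430) was read at 0 and 20 min at room temperature. Delta was normalized to 5.8 microM ADEP and DMSO/no-enzyme controls.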
TRPV1 potentiator – enhances activation of the human vanilloid receptor TRPV1 | Q8NER1 | TRPV1-expressing cells, Fluo-8 calcium influx, capsaicin EC20 potentiation; host cell line not named in the record; control for the full effect not named in the record | potentiation, % at 8.33 µM | 320,000 tested, 0.02% active | AID 540277; active means potentiation above 80%; inconclusive means 30% to 80%; inactive means below 30%; further: 0% is about no effect
Target sequence (Q8NER1 whole entry, looked up): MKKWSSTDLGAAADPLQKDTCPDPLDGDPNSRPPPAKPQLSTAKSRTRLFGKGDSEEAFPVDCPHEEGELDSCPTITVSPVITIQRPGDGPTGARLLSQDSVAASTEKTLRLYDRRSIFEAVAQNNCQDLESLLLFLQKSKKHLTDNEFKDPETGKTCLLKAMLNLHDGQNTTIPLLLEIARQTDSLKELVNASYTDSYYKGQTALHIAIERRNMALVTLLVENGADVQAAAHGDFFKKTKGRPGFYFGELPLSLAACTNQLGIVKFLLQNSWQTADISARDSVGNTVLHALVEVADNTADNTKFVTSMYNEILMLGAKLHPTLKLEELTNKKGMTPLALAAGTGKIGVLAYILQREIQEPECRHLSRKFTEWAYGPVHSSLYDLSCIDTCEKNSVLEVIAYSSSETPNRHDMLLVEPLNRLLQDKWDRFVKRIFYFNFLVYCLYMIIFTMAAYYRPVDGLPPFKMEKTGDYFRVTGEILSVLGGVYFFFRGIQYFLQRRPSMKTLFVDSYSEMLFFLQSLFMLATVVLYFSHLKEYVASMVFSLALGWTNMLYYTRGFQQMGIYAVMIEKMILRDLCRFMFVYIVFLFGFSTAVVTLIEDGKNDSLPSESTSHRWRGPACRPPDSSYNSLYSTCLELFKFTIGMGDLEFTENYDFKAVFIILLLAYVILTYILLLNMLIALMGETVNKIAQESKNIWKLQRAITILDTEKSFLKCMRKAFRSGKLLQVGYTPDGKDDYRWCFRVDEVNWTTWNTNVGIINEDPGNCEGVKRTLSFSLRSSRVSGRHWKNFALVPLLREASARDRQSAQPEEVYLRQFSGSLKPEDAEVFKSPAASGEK
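Cells expressing TRPV1 were dye-loaded with Fluo-8 and read kinetically: 10 s baseline, 3 min after compound (agonist portion), then 2 min after EC20 capsaicin (allosteric enhancer portion). Calcium-bound dye fluorescence at 480/520 nm.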
gsp antag – antagonists of gsp mutant (McCune-Albright syndrome); gsp-mutant cells, cAMP HTRF, 30 min; control for the full effect not named in the record; Potency, µM (doses to about 76.9 µM), without a hit: at the highest dose activity change, negative = inhibition, usual class: inhibitors; 340,000 tested, 0.4% active; AID 624288; active = falling curve of any shape with a large fitted effect; inconclusive = falling curve, mostly with a smaller effect; inactive = flat or rising curve; cell line not stated here;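 further: intracellular cAMP measured with PDE inhibitor Ro 20-1724 present during compound exposure; potency means the concentration at half of the fitted maximal effect; on the % scale 0 is the no-effect control and ±100 the full control effect; nearly all actives have a fitted effect of over 65% in size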
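G418-selected cells were plated in DMEM/10% FBS for 16-24 h at 37C, then treated with compounds plus the PDE inhibitor […] (300 uM solution added) for 30 min at 37C. Intracellular cAMP was measured by HTRF after 30 min lysis at room temperature.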
Menin-MLL FL inh – inhibitors of human menin-MLL interaction, wild-type MLL peptide. Fluorescence polarization, fluorescein-MLL peptide displacement from menin. FP activity change, % at 61.4 µM. 290,000 tested, under 10 active. AID 1766; inconclusive = falling polarisation curve, or a change in total fluorescence; inactive = total fluorescence flat and polarisation flat or rising; no compound was filed as active; the % refers to the polarisation; negative = inhibition;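 further: % of control where 0% means no effect; inhibitors lower the polarisation; unlabelled MLL peptide was the positive control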
gsp agonist – agonists of gsp mutant (McCune-Albright syndrome). gsp mutant cells, cAMP HTRF, 30 min; control for the full effect not named in the record. Potency, µM (titrated, usually from 76.9 µM), without a hit: at the top dose activation (cAMP increase), hits mostly activators. 340,000 tested, 0.13% active; active = well fitted activation curve with a large enough effect; inconclusive = small, poorly fitted or top-dose-only effect, or another doubt; inactive = no such curve, though single readings can be large or run the other way; cell line not stated here;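 further: phosphodiesterase inhibitor Ro 20-1724 added with compounds to block cAMP breakdown; potency means the concentration at half of the fitted maximal effect; nearly all actives have a fitted effect of over 60% in size; about a fifth of the inactives were tested at one dose only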
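Cells in DMEM/10% FBS with G418 were pretreated with compounds in DMSO plus […] (300 uM stock) for 30 min at 37C. cAMP was measured by HTRF (cAMP-d2 plus anti-cAMP antibody-K) after 30 min at room temperature.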
CtBP-E1A inh – inhibitors of CtBP/E1A interaction | AlphaScreen GST-E1A/His-CtBP binding, 1536-well; hits give low values; control for the full effect not named in the record | activity change, % (concentration not given with the values) | 340,000 tested, 0.49% active; in the data active means activity change below about -65%; inconclusive means about -30% to -65%; inactive means above about -30%; further: on the % scale 0 is the no-effect control and ±100 the full control effect
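Homogeneous bead-based format: GST-tagged E1A captured on glutathione donor beads, His-tagged CtBP on nickel acceptor beads; compounds precede bead addition by 2 h at 37 °C.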
Sfp inh – inhibitors of Bacillus subtilis Sfp phosphopantetheinyl transferase | Biochemical Sfp PPTase activity, qHTS | Potency, µM, inactives show max response, negative = inhibition, most hits filed as inhibitors | 310,000 tested, 3.5% active; active means well fitted inhibition curve with a large enough effect; inconclusive means small, poorly fitted or top-dose-only effect, or another doubt; inactive means no such curve, though single readings can be large or run the other way;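 further: the enzyme is Sfp with the accession as filed and its product quenches rhodamine fluorescence; potency means the concentration at half of the fitted maximal effect; 0% = enzyme reaction without inhibitor and -100% = no enzyme wells; top concentration of the series not given in the record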
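After 15 min at room temperature with compound, 15 nM Sfp received 5 uM rhodamine-CoA plus 12.5 uM BHQ-2-ybbR (50 mM Hepes pH 7.6, 10 mM MgCl2). Rate came from the fluorescence difference over 30 min, ex 525/em 598 nm.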
Starred values were filed as active, the others as inactive; ? = inconclusive; · = no result given; [ ] = another dose, or the depositor's remark.

SMILES	ClpP mod	TRPV1 potentiator	gsp antag	Menin-MLL FL inh	gsp agonist	CtBP-E1A inh	Sfp inh
O=C(N/N=C/c1cccc([N+](=O)[O-])c1)c1ccncc1	-1.5%	-14.2	-6.7%	-0.4	-3.2%	-1.7	-2.5%
O=C(Nc1cccc([N+](=O)[O-])c1)c1cc2ccccc2cc1O	-0.8%	-3.3	14.1µM*	?	-24.0%	4.3	0.0%
OCC1(Cc2ccc(Cl)cc2)CCN(CC2CC=CCC2)CC1 (stereo not drawn)	·	5.1	4.6%	3.4	2.0%	8.0	2.2%
Cc1cc(Cl)ccc1N1C(=O)CC(NNC(=O)c2cccnc2)C1=O (stereo not drawn)	-0.7%	-3.2	12.9%	3.2	16.3%[15.4 µM]	-8.5	1.2%
Cc1ccccc1/C(=N\S(=O)(=O)c1ccc(Br)cc1)Nc1ccccc1	2.2%	·	·	·	-33.5%[inhibitor]	0.0	·
CC(C)N(CCCNC(=O)C1CCN(C(=O)c2cc3sccc3n2C)CC1)Cc1ccccc1	-3.4%	19.2	0.9%	·	-18.3%	-10.1	9.0%
COc1ccc(C(=O)Nc2ccc(S(=O)(=O)Nc3cc(C)nc(C)n3)cc2)cc1OC	·	-0.3	0.5%	1.4	11.8%	-4.1	8.5%
CCc1noc(C)c1C(=O)OCC(=O)c1ccc(NC(=O)CC(C)C)cc1	-3.3%	·	·	·	-39.5%	0.0	·
Cc1sc2ncnc(N3CCN(S(=O)(=O)c4ccccc4)CC3)c2c1C	2.3%	-1.4	-14.9%	·	-1.7%	7.6	·
COc1ccc(CCNC(=O)c2ccccc2NC(=O)C2=C(C)OCCS2)c(OC)c1	-1.4%	-2.1	-26.4%	-1.7	53.9%	-17.4	8.4%
CC(c1ccon1)N(C)Cc1cn(Cc2ccccc2)nc1-c1ccc2c(c1)OCO2 (stereo not drawn)	·	1.6	-9.3%	2.5	-6.0%	-11.9	-8.0%
Cc1cc(C(=O)NC2CCCc3c2cnn3-c2cccc(C)c2C)c(C)o1 (stereo not drawn)	2.5%	2.8	-32.6%	·	-2.2%	2.6	?
CC(C)CCNC1c2ccccc2C(=O)N1Cc1ccccc1 (stereo not drawn)	-1.2%	-10.7	-6.3%	3.1	10.3%	·	11.6%
O=C(Nc1cccc(S(=O)(=O)N2CCOCC2)c1)c1ccc(N2CCCC2=O)cc1	-2.5%	-4.9	?	·	9.4%	-24.6	·
COc1ccccc1N1CCN(S(=O)(=O)c2cn(C)cn2)CC1	-1.4%	2.1	3.8%	-7.6	22.5%	-4.6	-6.2%
O=C1C(Cc2cccc([N+](=O)[O-])c2)SC(=Nc2ccccc2)N1c1ccccc1 (stereo not drawn)	1.5%	22.1	?	1.7	-9.8%	11.1	0.3%
CCCN1CCN(C(=S)NCc2ccc(Cl)cc2)CC1	0.0%	-13.2	0.8%	-3.7	-18.0%	-3.6	8.4%
O=C(NCc1ccccn1)C(F)(F)C(F)(F)C(=O)NCc1ccccn1	1.4%	0.6	11.5%	-0.2	-14.4%	-25.3	-18.5%
Cc1ccc(C2C(C#N)=C(N)Oc3n[nH]c(-c4cccnc4)c32)o1 (stereo not drawn)	·	0.9	-11.1%	0.0	?	4.0	4.1%
c1ccc(OCc2cc(-c3ccccc3)no2)cc1	·	-7.0	2.8%	-4.4	-6.9%	10.7	-11.2%

Grouped by structure, the entries above containing a Cl atom
SMILES	ClpP mod	TRPV1 potentiator	gsp antag	Menin-MLL FL inh	gsp agonist	CtBP-E1A inh	Sfp inh
OCC1(Cc2ccc(Cl)cc2)CCN(CC2CC=CCC2)CC1 (stereo not drawn)	·	5.1	4.6%	3.4	2.0%	8.0	2.2%
Cc1cc(Cl)ccc1N1C(=O)CC(NNC(=O)c2cccnc2)C1=O (stereo not drawn)	-0.7%	-3.2	12.9%	3.2	16.3%[15.4 µM]	-8.5	1.2%
CCCN1CCN(C(=S)NCc2ccc(Cl)cc2)CC1	0.0%	-13.2	0.8%	-3.7	-18.0%	-3.6	8.4%

(further entries)
SMILES	ClpP mod	TRPV1 potentiator	gsp antag	Menin-MLL FL inh	gsp agonist	CtBP-E1A inh	Sfp inh
CC(C)OCCCNC1=C(Cl)C(=O)c2ccccc2C1=O	·	12.4	-14.3%	-3.2	7.7%[15.4 µM]	-22.9	?
CCc1ccc(N2CC(C(=O)Nc3ccc(S(=O)(=O)Nc4ncccn4)cc3)CC2=O)cc1 (stereo not drawn)	·	0.7	4.6%	-4.4	?	-3.4	16.2%
CC(NS(=O)(=O)CCNC(=O)c1ccccc1)c1ccccc1 (stereo not drawn)	-0.6%	3.6	7.6%	·	-11.8%	-2.2	·
CCN(C[C@H]1N[C@@](CC)(C(=O)OC)[C@H]2C(=O)N(Cc3ccccc3)C(=O)[C@@H]12)S(=O)(=O)c1ccc(C(C)(C)C)cc1	-2.7%	·	-6.1%	·	·	-4.9	·
COc1ccccc1CCNC(=O)CN1C(=O)NC2(CCCC2)C1=O	-2.2%	8.4	16.3%	·	-8.4%	11.3	·
C=CCN(C(=O)CCC(=O)Nc1cc(C)on1)C(C(=O)NC1CCCC1)c1ccc(OC)c(OC)c1 (stereo not drawn)	-15.4%	7.2	8.0%	0.6	-6.3%[15.4 µM]	0.0	11.6%
O=C(CN1CCCc2ccccc21)N/N=C/c1c(O)ccc2ccccc12	?	-1.5	?	13.4	-10.0%	?	6.4%
O=C(c1cc2nc(-c3ccc(F)cc3)cc(C(F)(F)F)n2n1)N1CCOCC1	-4.7%	-21.1	5.1%	5.2	-1.7%	-6.2	11.8%
Cc1c(CNCCCc2ccccc2)c(C(=O)O)c(C)n1Cc1ccccc1	0.5%	6.7	-4.0%	5.5	-13.4%	5.0	1.6%
O=C(CS(=O)(=O)c1c[nH]c2ccccc12)Nc1ccc2c(c1)OCCO2	-2.7%	24.9	-7.5%	7.6	0.8%	-0.6	4.4%
C[C@@H]1CCC[C@@]2(O[C@@H](CCO)C[C@H](O)[C@H]2O)O1	1.7%	·	4.9%	·	?	5.0	·
CC1=C(C#N)c2nc(N)c(C#N)c(C)c2/C1=C\c1ccc(C)cc1	·	3.3	·	?	·	·	35.5µM*
Cc1cccc(-n2c(SCC(N)=O)nc3c(c2=O)C2(CCCC2)Cc2ccccc2-3)c1	?	13.7	2.7%	1.5	10µM*	-27.6	-2.4%
Clc1cccc(OCCN2CCOCC2)c1	-7.7%	11.0	-2.0%	-8.0	-8.5%	-0.8	-18.4%
CC(C)C(=O)Nc1nnc(CSCc2ccccc2F)s1	-0.3%	8.1	0.9%	-0.2	-0.1%	1.8	15.4%
c1ccc2c(SCc3cn4ccccc4n3)nncc2c1	-3.3%	24.7	11.9%	2.0	4.1%	·	44.7µM*
COc1ccc(C(=O)Nc2c(O)ccc3ccccc23)cc1	0.7%	·	-16.7%	·	-7.3%[15.4 µM]	2.0	·
CCOc1cc(NC(=S)NCc2ccco2)c(OCC)cc1NC(=O)CC	0.3%	-5.1	2.0%	11.0	4.0%	?	-15.1%
CCCC(=O)Nc1ccc(C(=O)NCCCn2ccnc2)cc1	-2.9%	11.9	13.9%	-0.2	17.2%	-11.1	12.7%
CC(C)CC1(C(=O)O)NC(c2ccccc2O)C2C(=O)N(C(C)C)C(=O)C21 (stereo not drawn)	-2.4%	-16.9	2.6%	2.2	16.9%	0.0	12.0%
COC(=O)c1cccc(NC(=O)CSc2nc3cccnc3n2C)c1	0.1%	8.2	?	3.9	-9.9%	-4.4	8.4%
COc1ccc(-c2cc3c(=O)n(CC(=O)Nc4cccc(Cl)c4)nc(C)n3n2)cc1	-5.6%	-7.5	6.9%	-2.7	?	-20.4	14.1%
CCOC(=O)c1ccc(N(CC(=O)NC2CCCC2)C(=O)CNC(=O)c2ccco2)cc1	1.4%	1.5	1.9%	2.5	8.6%	-1.8	-0.8%
CC[C@@H]1C/C=C\Cc2ccccc2[C@H](C(=O)C[C@H](O)CC(C)=O)OC1=O	3.1%	·	-5.9%	·	·	1.2	·
COc1ccc(CCNC(=O)c2cnn3cccnc23)cc1OC	-3.9%	-9.9	1.6%	4.1	5.7%	8.0	6.7%
COc1ccc(CC(=O)Nc2cccc(/C(C)=N/NC(=O)C3(C)CC3(Br)Br)c2)cc1 (stereo not drawn)	-2.0%	-9.5	?	·	1.9%	-2.7	15.5%
O=C1CS/C(=C/C(=O)c2cccc(Cl)c2)N1	-4.9%	?	-7.5%	1.4	-75.4%[inhibitor]	0.0	-9.0%
CCOc1ccc(C(=O)CCC(=O)N2CCN(S(=O)(=O)c3cccc(F)c3)CC2)cc1	0.8%	9.8	-29.2%	·	-49.8%[inhibitor]	-4.2	·
Cc1cccnc1NC(=O)CNC(=O)C12CC3CC(CC(C3)C1)C2	0.2%	0.9	15.1%	·	?	7.9	·
CCn1nc(C(=O)NNS(=O)(=O)c2ccc(C)cc2)c2ccccc2c1=O	·	·	-7.1%	·	24.4%	-2.3	·

Reprinted from the part before: 2 compounds, then new ones.
SMILES	ClpP mod	TRPV1 potentiator	gsp antag	Menin-MLL FL inh	gsp agonist	CtBP-E1A inh	Sfp inh
Cc1cccnc1NC(=O)CNC(=O)C12CC3CC(CC(C3)C1)C2	0.2%	0.9	15.1%	·	?	7.9	·
CCn1nc(C(=O)NNS(=O)(=O)c2ccc(C)cc2)c2ccccc2c1=O	·	·	-7.1%	·	24.4%	-2.3	·
Cc1ccc2nc(NC(=O)CN3CCN(c4ccccn4)CC3)sc2c1	·	20.7	-2.0%	-4.6	8.4%	-3.2	5.8%
COc1ccc(N2CCN(C(=O)c3cc4c(s3)CCCCC4)CC2)cc1	-0.8%	-12.4	-15.0%	·	-105.8%[inhibitor]	?	·
Cc1ccc(-c2nn(-c3ccccc3)cc2C2SCC(=O)N2Cc2ccccc2)o1 (stereo not drawn)	?	23.4	-23.9%	1.5	0.5%	-16.0	22.4µM*
CCOCCCNC(=O)C(c1ccc(C)cc1)N(Cc1cccs1)C(=O)c1ccccc1O (stereo not drawn)	·	-4.0	-10.9%	-5.3	-3.2%[15.4 µM]	-8.5	11.7%
CC12CCC(C(N)C1=O)C2(C)C (stereo not drawn)	0.6%	·	9.9%	·	3.9%	-0.6	·
CCCC(CCC)C(=O)Nc1cccc(-c2cn3c(n2)SCC3)c1	-1.2%	3.5	-1.3%	1.0	-21.5%	·	0.4%

Source: PubChem
